PINK1 modulator: A Quantitative High throughput Screen to Identify Chemical Modulators of PINK1 Expression | PINK1 immunofluorescence, high-content cytometry, 24 h | AID 624263, 2012 | 410,000 tested, 0.2% active | Potency, µM (series often up to 76.6 µM), without a hit: at the highest dose activation (PINK1 increase), usual class: activators; active = well fitted activation curve with a large enough effect; inconclusive = small, poorly fitted or top-dose-only effect; inactive = flat fitted curve, though single readings scatter; cell line not stated here;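 note: potency is the fitted concentration of half-maximal effect; % of control where 0% means no effect; nearly all actives have a fitted effect of over 65% in size; a mitochondrial uncoupler was the plate control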
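Stable cell line treated 24 h with compounds at 5 concentrations (CCCP controls), then fixed and immunostained for PINK1 plus nuclear and cell stains; PINK1 immunofluorescence quantified by laser-scanning microplate cytometry.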
TRPML1 ag: qHTS for Agonists of the Human Mucolipin Transient Receptor Potential 1 (TRPML1). 410,000 tested, 0.12% active. TRPML1-expressing cells, Ca2+ dye fluorescence, FDSS; host cell line not named in the record; reference of the full effect not given here. activation, % (test concentration not listed). Mucolipin-1 (Homo sapiens), Q9GZU1; in the data active = activation above about 50%; inconclusive = about 30% to 50%; inactive = below about 30%; note: 0% is about no effect; the text of the record puts the active cut at 80%
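Cells: TRPML1-DL, 1X Tet inducer, ~16 h at 37 degrees C/5% CO2. Dye: ABD Ca8 no-wash + quencher, 45-90 min RT. Read: 10 s baseline, compound add, 110 s agonist phase; 54-4 EC80 (4uM final), 110 s antagonist phase.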
TRPV1 PAM: HTS Assay for Compounds that Act as Potentiators of the Vanilloid Receptor 1; Transient receptor potential cation channel subfamily V member 1 (Homo sapiens), Q8NER1; TRPV1-expressing cells, Fluo-8 calcium influx, capsaicin EC20 potentiation; host cell line not named in the record; control for the full effect not named in the record; potentiation, % at 8.33 µM; 320,000 tested, 0.02% active; active means potentiation above 80%; inconclusive means 30% to 80%; inactive means below 30%; note: 0% is about no effect
Target sequence (Q8NER1 whole entry, looked up): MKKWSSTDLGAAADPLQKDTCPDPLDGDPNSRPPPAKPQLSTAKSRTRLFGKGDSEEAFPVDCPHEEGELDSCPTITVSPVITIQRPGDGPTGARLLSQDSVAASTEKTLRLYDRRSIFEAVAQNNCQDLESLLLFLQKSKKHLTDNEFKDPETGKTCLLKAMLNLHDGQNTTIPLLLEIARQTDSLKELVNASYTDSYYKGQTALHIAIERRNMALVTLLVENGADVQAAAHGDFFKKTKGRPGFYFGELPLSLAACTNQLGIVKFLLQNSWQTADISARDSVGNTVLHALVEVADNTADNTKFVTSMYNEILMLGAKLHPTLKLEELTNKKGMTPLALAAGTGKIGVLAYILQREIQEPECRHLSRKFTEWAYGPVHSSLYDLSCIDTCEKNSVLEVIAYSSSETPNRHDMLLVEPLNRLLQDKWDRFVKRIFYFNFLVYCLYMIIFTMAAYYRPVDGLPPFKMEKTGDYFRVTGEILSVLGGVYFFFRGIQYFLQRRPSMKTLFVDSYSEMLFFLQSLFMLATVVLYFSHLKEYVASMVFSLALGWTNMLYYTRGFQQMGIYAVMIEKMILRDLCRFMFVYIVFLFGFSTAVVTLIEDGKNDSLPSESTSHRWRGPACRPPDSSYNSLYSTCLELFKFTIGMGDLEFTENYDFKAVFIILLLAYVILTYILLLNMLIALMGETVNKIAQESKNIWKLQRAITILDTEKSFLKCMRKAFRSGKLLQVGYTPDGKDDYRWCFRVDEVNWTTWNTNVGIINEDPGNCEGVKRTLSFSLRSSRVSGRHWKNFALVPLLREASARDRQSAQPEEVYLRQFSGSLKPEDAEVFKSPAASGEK
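Cells expressing TRPV1 were dye-loaded with Fluo-8 and read kinetically: 10 s baseline, 3 min after compound (agonist portion), then 2 min after EC20 capsaicin (allosteric enhancer portion). Calcium-bound dye fluorescence at 480/520 nm.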
Sfp inh: qHTS Assay for Inhibitors of Bacillus subtilis Sfp phosphopantetheinyl transferase (PPTase); Potency, µM, for inactives: max response, negative = inhibition, actives largely listed as inhibitors; Biochemical Sfp PPTase activity, qHTS; 310,000 tested, 3.5% active; active = well fitted inhibition curve with a large enough effect; inconclusive = small, poorly fitted or top-dose-only effect, or another doubt; inactive = no such curve, though single readings can be large or run the other way;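 note: the enzyme is Sfp with the accession as filed and its product quenches rhodamine fluorescence; potency is the fitted concentration of half-maximal effect; 0% = enzyme reaction without inhibitor and -100% = no enzyme wells; top concentration of the series not given in the record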
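After 15 min at room temperature with compound, 15 nM Sfp received 5 uM rhodamine-CoA plus 12.5 uM BHQ-2-ybbR (50 mM Hepes pH 7.6, 10 mM MgCl2). Rate came from the fluorescence difference over 30 min, ex 525/em 598 nm.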
ClpP mod: qHTS Assay for Activators of ClpP; ATP-dependent Clp protease proteolytic subunit (Bacillus subtilis (strain 168)), P80244; 340,000 tested, 1.9% active; AID 651965, 2013; Potency, µM (titrated, usually from 57.5 µM), for the others: at the top dose activity change, negative = active; purified B. subtilis ClpP, FRET peptide cleavage, 20 min; active = well fitted falling curve with a large enough effect; inconclusive = small, poorly fitted or top-dose-only effect; inactive = no such curve, though single readings can be large or run the other way; note: potency is the fitted concentration of half-maximal effect; the source files actives as falling curves though it sought activators and does not explain the sign; nearly all actives have a fitted effect of over 65% in size; many hits overshoot -100%
Target sequence (P80244 whole entry, looked up): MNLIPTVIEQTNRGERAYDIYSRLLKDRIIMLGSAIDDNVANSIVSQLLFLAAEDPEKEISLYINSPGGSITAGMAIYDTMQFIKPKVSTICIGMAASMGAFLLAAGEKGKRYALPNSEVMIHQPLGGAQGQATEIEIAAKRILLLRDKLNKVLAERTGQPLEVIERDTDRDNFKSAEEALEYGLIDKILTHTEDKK
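FRET quenching reversal measured ClpP activation: 10 microg/mL B. subtilis ClpP at pH 8 with the FRET-FV decapeptide, read at 430 nm after 320 nm excitation. The 20-min minus 0-min signal was scaled between DMSO/no-enzyme wells and ADEP (5.8 microM final).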
Menin-MLL FL inh: qHTS Assay for Inhibitors Targeting the Menin-MLL Interaction in MLL Related Leukemias: Competition With Fluorescein Labeled MLL-derived Peptide; AID 1766, 2009; 290,000 tested, under 10 active; Fluorescence polarization, fluorescein-MLL peptide displacement from menin; FP activity change, % at 61.4 µM; inconclusive = falling polarisation curve, or a change in total fluorescence; inactive = total fluorescence flat and polarisation flat or rising; no compound was filed as active; the % refers to the polarisation; negative = inhibition;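 note: % of control where 0% means no effect; inhibitors lower the polarisation; unlabelled MLL peptide was the positive control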
TRPML1 blocker: qHTS for Inhibitors of the Human Mucolipin Transient Receptor Potential 1 (TRPML1) | Mucolipin-1 (Homo sapiens), Q9GZU1 | TRPML1-inducible cells, Ca2+ dye fluorescence, FDSS; hits give low values; inhibition of EC80 agonist-evoked calcium signal | 390,000 tested, 0.02% active | activity change, negative = inhibition, % (test concentration not listed); in the data active means activity change below about -50%; inconclusive means about -30% to -50%; inactive means above about -30%;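 note: stimulus is agonist 54-4 at its EC80 concentration; % is set by controls: 0 for no effect and ±100 for the full control effect; compound concentration not given in the record; the text of the record puts the active cut at -80%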
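Tet-induced TRPML1-DL cells loaded with Ca8 no-wash calcium dye were read kinetically on FDSS. Compound addition was followed by EC80 agonist 54-4 (4 uM final); inhibition was read over 110 s.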
An asterisk follows results filed as active; u = inconclusive; x = no result given; & = joins results of further samples; ! = not confirmed by another sample; [ ] = dose if it differs, or a comment.

canonical_smiles	PINK1 modulator	TRPML1 ag	TRPV1 PAM	Sfp inh	ClpP mod	Menin-MLL FL inh	TRPML1 blocker
CC(=O)N1CC(C)Sc2ccc(S(=O)(=O)NCc3ccccc3Cl)cc21 (centres undefined)	0.5%	-0.8	14	12%	1.7%	x	-20
COc1ccc(/C(C)=N/NC(=O)c2cc(-c3cccnc3)nc3ccccc23)cc1	2.7%	-0.3	u	17%	x	4.4	1
O=c1c2ccccc2nc(-c2ccoc2)n1CCc1ccccc1	4.8%	1.1	-21	5%	25µM*	2.4	-6
Cc1nc(N)sc1-c1csc(Nc2cccc(C(=O)O)c2)n1	-1.7%	-0.2	29	-26%	-5.1%	8.2	-19
COC(=O)c1ccccc1NC(=O)CSc1nc2ccsc2c(=O)n1CCC(C)C	-0.4%	2.1	x	x	0.7%	x	-10
Cc1cccc(CCNC(=O)c2ccc3c(c2)nc2n3CCC(C)C2)c1 (centres undefined)	4.8%	1.3	x	x	2.7%	x	37
COC(=O)CC1=NN(c2ccc(OC)cc2)C(=O)/C1=C\c1ccc(Cl)cc1	10%	-0.5	0	6%	0.9%	5.6	-10
Cc1cc(C)nc(NS(=O)(=O)c2ccc(NC(=O)Nc3ccccc3)cc2)n1	2.2%	-0.8	-7	21%	x	9.6	-7
COc1ccc2[nH]c(=O)c(CN(c3ccc(C)c(C)c3)S(C)(=O)=O)cc2c1	2.5%	-0.8	7	2%	x	5.3	0
CCCCCC(=O)Nc1ccc(C(=O)COC(=O)c2ccccn2)cc1	0.5%	-0.7	-3	x	x	x	11
CCOCc1nnc(NC(=O)CSc2ccc(C)cc2)s1	-2.6%	4.8	u	-2%	0.8%	-1.7	30
CC(C)NC(=O)COC(=O)c1ccc(O)cc1	-0.7%	0.3	u	-1%	-0.6%	1.2	-3
S=c1[nH]cc2cnccn12	0.5%	-0.3	x	x	-11%	x	1
Cc1cc(C)n(CC(O)COc2ccccc2C)n1 (centres undefined)	4.1%	0.6	7	-11%	x	-1.8	27
CC(=O)Nc1cc(-c2ccccc2N(C)C)cn2c(-c3ccc(S(C)(=O)=O)cc3)cnc12	0.8%	1.5	x	x	4.0%	x	x
CCCC(=O)OCCn1c(Br)nc2c1c(=O)[nH]c(=O)n2C	-4.3%	1.2	21	-10%	-2.7%	1.9	-11
O=C(NCc1cccnc1)Nc1ccccc1F	-3.2%	-0.8	-24	16%	-1.1%	1.7	2
CCOc1ccc(N2CC(c3nc4ccccc4n3CCCOc3ccccc3OC)CC2=O)cc1 (centres undefined)	1.4%	1.3	x	x	6.9%	x	19
CS(=O)(=O)N(Cc1nc2sc3c(c2c(=O)[nH]1)CCCC3)C1CCCCC1	6.5%	0.2	x	x	76%	x	31
O=C(CSc1nc2ccccc2[nH]1)Nc1ccccc1N1CCOCC1	-0.6%	4.7	9	4%	-3.1%	3.7	-17
O=C(CN1CCCC1)NC(c1ccccc1)c1ccccc1	-1.7%	-1.5	3	-15%	1.7%	-0.6	4
Cc1c(CC(=O)N2CCC(C(=O)O)CC2)c(=O)oc2cc3c(cc12)CCC1(CCCCC1)O3	-0.4%	x	-2	u	4.8%	-0.7	x
CCN=C1SC(CC(=O)NCCc2ccc(OC)c(OC)c2)C(=O)N1CC (centres undefined)	-0.5%	0.5	2	2%	-3.3%	3.1	5
CCOC(=O)c1cnc(-n2nc(C)cc2C)nc1NC	-0.1%[38.3 µM]	0.0	9	u	32µM*	0.0	-5
Cc1cccc2c3nc4ccccc4nc3n(CCCN3C(=O)c4ccccc4C3=O)c12	14%	2.0	4	5%	-3.4%	1.8	-12
CN1CCN(c2ccnc(-c3cccnc3)n2)CC1	-0.3%	x	x	7%	x	-1.3	x
COCCCNC(=O)c1c(NC(=O)c2cc(=O)c3cc(C)c(C)cc3o2)sc2c1CCCC2	2.5%	-0.5	x	x	0.7%	x	2
CCN(CC)c1nc(N)c2c(N)nc(OC)cc2c1C#N	-0.8%	0.1	x	x	4.4%	x	-2
Cc1ccc(NC(=O)CN2C(=O)c3ccccc3Sc3ccc(C(=O)N4CCCC4)cc32)cc1	0.9%	2.1	x	x	-1.1%	x	17
CCc1ccc(CNC(=O)c2ccc(NC(=O)N3CCSc4ncccc43)cc2)cc1	-2.1%	1.2	x	x	32µM*	x	-17
COC(=O)c1ccc(Cn2c(=O)cc(C)c3c(C)nn(C)c32)cc1	2.9%	3.0	x	x	-9.3%	x	29
COc1ccc(S(=O)(=O)NCC(c2ccco2)N2CCOCC2)cc1C (centres undefined)	-1.3%	0.5	x	x	-1.1%	x	15
CNC(=O)c1c(Cl)cnn1-c1ccccc1	1.1%	-0.6	5	-12%	x	-4.2	2
O=C(O)CCCCCNC(=O)CSc1nnc(-c2ccco2)n1-c1ccccc1	-0.8%	-1.0	4	0%	x	-8.9	-4
Cc1ccsc1CN1CCC(C(=O)NCc2ccccc2Cl)CC1	-0.8%	-0.3	-19	u	-0.7%	-2.2	-1
CCOCCCNC(=O)C(NC(=O)CNC(C)=O)c1ccc(Cl)cc1 (centres undefined)	0.6%	-0.4	-2	27%	0.5%	4.3	21
Cc1ccc(S(=O)(=O)Nc2cccc(C(=O)N3CCCC3)c2)cc1F	-4.9%	0.7	-3	x	-1.3%	x	-14
CC1(C)C(=O)Nc2ccccc2N1C(=O)COC(=O)c1cc(S(=O)(=O)N2CCOCC2)ccc1F	1.0%	-1.0	-6	1%	x	-2.8	-8
O=C(NCCc1ccccc1)c1cccc2c1C(=O)N(C1CCCCC1)C2	1.2%	0.0	-12	-20%	-1.4%	x	17
Cn1nnc2cc(NC(=O)NCc3ccc4c(c3)OCO4)ccc21	0.0%[38.3 µM]	-0.3	-8	2%	-14%	4.9	-6
CCc1nc2nc(C)cc(Nc3cc(Cl)ccc3OC)n2n1	-2.2%	2.3	x	x	-1.6%	x	16
O=S(=O)(NN1CCOCC1)c1ccc(Br)cc1	-0.6%	-0.8	-5	1%	0.2%	4.4	-3
Cc1cccc(C)c1NC(=O)Cn1c(=O)c(N2CCCCC2)c(N)n(C)c1=O	2.1%	0.8	x	x	x	x	8
O=C(CCN1C(=O)c2cccnc2C1=O)NC1CCCCCC1	1.8%	-0.2	4	-2%	0.7%	3.3	-8
O=C(Nc1ccccc1N1CCCC1)c1ccc([N+](=O)[O-])cc1Cl	1.9%	2.0	-10	3%	1.5%	0.9	-1
COC(=O)C1(c2ccccc2)NC(c2ccc(O)cc2)C2C(=O)N(c3ccc4c(c3)OCO4)C(=O)C21 (centres undefined)	-1.7%	0.0	-6	12%	-2.8%	-2.0	-19
CC1=CCC2C(=O)N(CCc3c[nH]c4ccccc34)C(=O)C2C1 (centres undefined)	2.8%[38.3 µM]	-0.2	4	13%	-1.8%	2.0	10
CC(C)C(NS(=O)(=O)c1ccc2c(c1)OCCO2)C(=O)NCCc1ccccn1 (centres undefined)	0.7%	0.0	-3	17%	-0.9%	-1.1	10
O=C(CC1Sc2ncnn2C1=O)Nc1ccc(Cl)cc1 (centres undefined)	0.2%	-0.6	-3	35µM*	x	2.4	-8
O=C(CN1CCN(c2ccccc2)CC1)Nc1ccccc1Cl	0.8%	2.3	4	-1%	-1.3%	-4.0	1
Cc1ccc2nc(NC(=O)CSc3ncc(C(=O)Nc4ccc(F)cc4)c(=O)n3C)sc2c1	2.7%	0.7	x	x	-26%	x	-1
CC(C)C[C@@H]1O[C@H](CCc2ccccc2)Cc2[nH][nH]c(=O)c21	8.0%	-0.9	x	x	-1.4%	x	x
COC(=O)c1ccc2c(=O)n(CCCCCC(=O)O)c(=O)[nH]c2c1	0.7%	0.3	-9	7%	28µM*	1.1	11
CC(C)[C@@H](N)C(=O)NC[C@H]1O[C@@H](n2cnc3c(=O)[nH]c(N)nc32)[C@H](O)[C@@H]1O	1.3%	0.1	x	x	1.1%	x	u
O=C(COC(=O)c1cc(=O)c2ccccc2o1)Nc1ccc2ccccc2c1	1.2%	-0.9	4	6%	1.7%	8.5	0
COc1ccc(-c2[nH]c3ccccc3c2SCCNC(=O)c2ccc(S(=O)(=O)N(C)C)cc2)cc1	-0.8%	0.0	x	x	-2.5%	x	21
COc1cc2c(cc1OC)-c1cc(=Nc3c(C)cc(C)cc3C)n(C)c(=O)n1CC2	1.4%	-0.5	x	71µM*!	-11%	1.8&0.9	x
O=C(CSc1nc(-c2ccccc2)nc2ccc(F)cc12)Nc1cccc(C(=O)O)c1	0.0%	-0.5	29	-7%	2.2%	-2.0	-1
CCC(=O)Nc1ccc(C(=O)N/N=C/c2cccnc2)cc1	3.1%[38.3 µM]	0.7	6	20%	0.7%	-2.3	9
Cc1ccc(Sc2c([N+](=O)[O-])c(C)nn2C)cc1	1.2%	2.6	-13	-5%	x	1.5	28

The list continues.
canonical_smiles	PINK1 modulator	TRPML1 ag	TRPV1 PAM	Sfp inh	ClpP mod	Menin-MLL FL inh	TRPML1 blocker
O=C(COC(=O)CCC1CCCC1)Nc1ccc(F)cc1Cl	1.0%	5.7	-15	x	-0.8%	x	-10
Cc1ccccc1NS(=O)(=O)c1ccc(C)c(NS(C)(=O)=O)c1C	2.3%	-0.1	5	10%	x	2.1	15
O=C1COc2ccc(C(=O)COC(=O)Cc3c(F)cccc3Cl)cc2N1	-2.1%	0.4	-18	x	-19%	x	-18
CCOC(=O)C1=C(Cc2ccc(Cl)cc2)C(=O)c2ccccc2C1=O	u	0.1	21	3.5µM*	3.9%	9.4	1

Screening data (PubChem)
